From PubChem
PKD1 inh: PKD1 (human) kinase inhibition; Q15139; PKD1 kinase fluorescence polarization assay; inhibition, %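 (about 10 µM by stock and volumes)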; 0.056% of 200,000 active; AID 797;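 active = inhibition of 50% or more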;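 note: controls were vehicle for no effect and a reference inhibitor for full effect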
GALR2 ag: agonists of human galanin receptor 2 (GALR2); 0.48% of 140,000 active; O43603; activation, %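 (tested at 5 µM)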; GALR2-expressing cells, agonist activation read-out;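 active = above mean plus 3 SD of all compounds, about 5% in these data, not always enough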;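 note: 0% = vehicle buffer wells and 100% = reference agonist at full effect; tested in CHO reporter cells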
Target sequence (O43603 whole entry, looked up): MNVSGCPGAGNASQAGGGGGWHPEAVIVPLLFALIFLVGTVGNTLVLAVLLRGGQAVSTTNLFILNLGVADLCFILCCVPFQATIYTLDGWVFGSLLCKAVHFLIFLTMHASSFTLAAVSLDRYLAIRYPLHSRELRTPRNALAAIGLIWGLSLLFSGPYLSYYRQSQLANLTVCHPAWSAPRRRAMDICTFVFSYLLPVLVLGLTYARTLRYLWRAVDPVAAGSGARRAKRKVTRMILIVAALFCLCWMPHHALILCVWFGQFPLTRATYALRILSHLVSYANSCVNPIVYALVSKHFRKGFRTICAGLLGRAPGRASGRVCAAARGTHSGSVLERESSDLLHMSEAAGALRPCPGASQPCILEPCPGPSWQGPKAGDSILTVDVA
HSV augment: increases HSV replication in cells; HSV replication augmentation in cells, fold increase; maximum fold increase; 0.005% of 220,000 active; AID 1956;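 active = peak rise of 1.5-fold or more in the series; tested in PC3 cells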;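 note: first round at 10 µM; read as green reporter fluorescence; hits show the peak of a series up to 25 µM; 1 = signal of infected wells without compound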
INS promoter inh: TRM-6 insulin promoter activity inhibition; inhibition, % at 2 µM; TRM-6 cells (human fetal islet line), insulin promoter-eGFP reporter, imaging; reporter expression induced with tamoxifen; 0.9% of 130,000 active;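 active = inhibition above the mean plus 3 SD, with well images judged a real hit on visual review, cut at about 60% in these data, passing the limit was not always enough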
RGS16-Gao HTS: modulates binding between human RGS16 and Galphao; O15492+P09471; bead-based flow cytometry RGS16-Galphao binding, fluorescence; actives lie on both sides; binding response (% of control), % at 10 µM; 0.38% of 220,000 active;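 active = below 25% or above 175%, edge rows of some plates excepted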;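 note: Galphao activated by GDP with aluminum fluoride before binding; 100% = wells without compound and 0% = beads without RGS; some results beyond the cut were filed as inactive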
INS promoter inh cell count: second read-out of INS promoter inh, no call of its own (marks repeat the call); normalized cell count, %; measured here: cell count, toxicity; reference of the scale not given here;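 cells exposed to compound for 48 h; stained nuclei by imaging scaled within each plate; lower means fewer cells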
HSV augment primary fold: further read-out of HSV augment, marked with its call; fold increase; compound at 10 µM; measured here: primary screen fold increase 10 uM; tested in PC3 cells;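 GFP signal in the first replicate; 1 = infected wells without compound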
Numbers without * were called inactive; i = inactive; nt = not tested or not shown. This is a random part of the collection, and some 1.3% of all compounds hit somewhere here.

molecule,PKD1 inh,GALR2 ag,HSV augment,HSV augment primary fold,INS promoter inh,INS promoter inh cell count,RGS16-Gao HTS
CC(=O)NC1C(Oc2ccccc2C)OC(CO)C(O)C1O (configuration not stated),-1,nt,i,1,-33,82,107
C=CCNc1nc(-c2ccccc2)c(C(=O)OCC)cc1C#N,-11,-0.8,i,0.83,-19,80,100
Cc1nc2cc3c(cc2c(C)c1C(=O)OC(C)C)OCO3,0,-0.1,i,0.96,-29,78,100
Clc1ccc(-c2nc3cnccn3c2Nc2ccc3c(c2)OCO3)cc1,6,0.0,i,0.96,nt,nt,109
Cc1ccc(C(=O)Nc2cccc(-c3cn4ccccc4n3)c2)cc1,0,nt,i,0.86,nt,nt,98
COC(=O)c1cc(NC(=O)C2COc3ccccc3O2)cc(C(=O)OC)c1 (configuration not stated),-5,-1.7,i,0.99,32,112,98
COc1ccc(-c2[nH]c(-c3cccc(OC)c3)nc2SCC(=O)NC2CCCC2)cc1,-12,-0.9,i,0.84,19,86,nt
CCOC(=O)c1cccc(S(=O)(=O)N2CCCC2)c1,-7,0.4,i,1,-10,102,91
CCC(=O)Oc1ccc(C(CC)C(CC)c2ccc(OC(=O)CC)cc2)cc1 (configuration not stated),-5,-2.1,i,1.1,-57,98,98
COC(=O)c1cccc(Cn2c(Cl)c(/C=N/Nc3ccccc3C)sc2=O)c1,-9,-0.1,i,1.1,-6,71,110
Cc1ccc(SC[C@H](c2ccccc2)N2CCN(C)CCC2=O)cc1,nt,nt,i,0.94,nt,nt,102
CC(C)CCN1CCN(Cc2cccn2-c2ccccn2)CC1CCO (configuration not stated),5,nt,i,1.1,nt,nt,99
COC(=O)c1ccc(CSc2ncnc3sc(C)c(C)c23)o1,3,-1.7,i,0.85,-31,57,102
CN(C)S(=O)(=O)c1ccc2c(c1)nc(CCC(=O)NCC1CCCCC1)n2C,-16,-3.2,i,0.84,13,140,101
COc1ccc(C(=O)Nc2ccccc2C(=O)O)cc1Cl,-10,-0.7,i,1,-3,61,135
CN1CCN(S(=O)(=O)c2cccc(C(=O)Nc3ccccc3N3CCOCC3)c2)CC1,0,nt,i,0.98,14,118,99
C[N+]1(CCCCCCC(=O)/C=N/O)CCCCCC1,-1,0.6,i,0.95,19,215,102
O=S1(=O)c2cccc3cccc(c23)N1Cc1ccc(-c2nnco2)cc1,-11,-1.0,i,0.91,nt,nt,99
COc1ccc(C(=O)NCc2ccccc2)cc1Br,-7,-1.4,i,1.1,nt,nt,88
CC(C)(C)C(=O)NC(=S)N1CCOCC1,-2,1.7,i,1.2,42,55,123
CC(C)(C)c1ccc(S(=O)(=O)CC(O)CSc2nc3c(cc2C#N)CCCC3)cc1 (configuration not stated),-7,-1.4,nt,nt,-14,119,103
Brc1ccc(-c2nc3ccccc3s2)s1,-1,-2.1,i,0.98,nt,nt,99
O=C(Nc1cc(C(F)(F)F)ccc1Cl)C(=O)N1CCCCC1,0,-0.1,i,0.92,nt,nt,103
COC(=O)Cn1nc(-c2ccc(C)cc2)c2ccccc2c1=O,-3,nt,i,0.95,11,120,100
Cc1ccc(-n2cc(CN3CCNC(=O)CC3)c(-c3cccc(C)c3)n2)cc1,-1,nt,i,0.87,8,128,105
COc1ccc2[nH]c(=O)c(CN(Cc3ccco3)Cc3nnnn3Cc3ccccc3)cc2c1,-1,-0.7,i,0.92,-39,131,101
Cc1cccc(N2CCN(C(=O)C3CCCN(S(=O)(=O)c4cnc[nH]4)C3)CC2C)c1 (configuration not stated),2,-0.6,i,0.77,38,105,96
N#Cc1ccsc1NC(=O)CN1CCN(c2ccc(O)cc2)CC1,1,-0.3,i,0.86,43,112,96
Cc1ccc(-c2nnc(NCc3nc4ccccc4[nH]3)c3ccccc23)cc1S(=O)(=O)N1CCCCC1,-11,-0.1,i,1,nt,nt,100
CC1CC(=O)N(c2ccc(N(C)Cc3ccccc3)c([N+](=O)[O-])c2)C1=O (configuration not stated),-3,nt,i,1.1,12,119,104
O=C(Nc1nc(-c2ccccc2)cs1)c1ccc(Br)o1,-2,-0.6,i,0.91,nt,nt,100
CC(=O)N1CN(C2CC(C)(C)NC(C)(C)C2)Cc2c1sc1c2CCCC1,5,-1.9,i,0.88,22,123,105
Cc1ccc(CN2CCN(/N=C\C(Br)=C\c3ccccc3)CC2)cc1,-5,-0.5,i,0.93,-13,115,90
COc1ccc(C2=NOC(C(=O)NC3CCCCC3)C2)cc1OC (configuration not stated),-8,-2.0,i,1,25,115,99
Cc1nc(CSc2nsc(C)c2C#N)cs1,-1,nt,nt,nt,31,123,102
Cc1nnsc1C(=O)N1CCN(c2ccc(F)cc2)CC1,nt,nt,i,0.85,nt,nt,103
Cc1ccc(S(=O)(=O)N2CCCCC2)c(C)c1NS(C)(=O)=O,5,nt,i,1.1,nt,nt,95
CCOC(=O)C1CC=C(Cl)CC1C(=O)Nc1nccs1 (configuration not stated),-11,-1.2,i,1.2,-24,97,112
Cc1ccc(Nc2ncnc(N)n2)cc1C,-2,nt,i,0.94,nt,nt,102
Cc1cccc(N2C(=O)CC(N(O)c3ccccc3)C2=O)c1 (configuration not stated),24,-0.9,i,0.71,-7,152,103

Sorted by formula weight (largest number first): part of the list above
molecule,PKD1 inh,GALR2 ag,HSV augment,HSV augment primary fold,INS promoter inh,INS promoter inh cell count,RGS16-Gao HTS
Cc1ccc(-c2nnc(NCc3nc4ccccc4[nH]3)c3ccccc23)cc1S(=O)(=O)N1CCCCC1,-11,-0.1,i,1,nt,nt,100
Cc1ccc(CN2CCN(/N=C\C(Br)=C\c3ccccc3)CC2)cc1,-5,-0.5,i,0.93,-13,115,90
CCC(=O)Oc1ccc(C(CC)C(CC)c2ccc(OC(=O)CC)cc2)cc1 (configuration not stated),-5,-2.1,i,1.1,-57,98,98
COC(=O)c1cc(NC(=O)C2COc3ccccc3O2)cc(C(=O)OC)c1 (configuration not stated),-5,-1.7,i,0.99,32,112,98
O=S1(=O)c2cccc3cccc(c23)N1Cc1ccc(-c2nnco2)cc1,-11,-1.0,i,0.91,nt,nt,99
Cc1ccc(SC[C@H](c2ccccc2)N2CCN(C)CCC2=O)cc1,nt,nt,i,0.94,nt,nt,102
O=C(Nc1nc(-c2ccccc2)cs1)c1ccc(Br)o1,-2,-0.6,i,0.91,nt,nt,100
Cc1ccc(S(=O)(=O)N2CCCCC2)c(C)c1NS(C)(=O)=O,5,nt,i,1.1,nt,nt,95
O=C(Nc1cc(C(F)(F)F)ccc1Cl)C(=O)N1CCCCC1,0,-0.1,i,0.92,nt,nt,103
COC(=O)c1ccc(CSc2ncnc3sc(C)c(C)c23)o1,3,-1.7,i,0.85,-31,57,102
CCOC(=O)C1CC=C(Cl)CC1C(=O)Nc1nccs1 (configuration not stated),-11,-1.2,i,1.2,-24,97,112
CC(=O)NC1C(Oc2ccccc2C)OC(CO)C(O)C1O (configuration not stated),-1,nt,i,1,-33,82,107
C=CCNc1nc(-c2ccccc2)c(C(=O)OCC)cc1C#N,-11,-0.8,i,0.83,-19,80,100
COc1ccc(C(=O)Nc2ccccc2C(=O)O)cc1Cl,-10,-0.7,i,1,-3,61,135
Brc1ccc(-c2nc3ccccc3s2)s1,-1,-2.1,i,0.98,nt,nt,99
CCOC(=O)c1cccc(S(=O)(=O)N2CCCC2)c1,-7,0.4,i,1,-10,102,91
C[N+]1(CCCCCCC(=O)/C=N/O)CCCCCC1,-1,0.6,i,0.95,19,215,102
Cc1nc(CSc2nsc(C)c2C#N)cs1,-1,nt,nt,nt,31,123,102
